Mtb H37Rv – M. tuberculosis H37Rv growth inhibitors, H37Rv strain (AID 1626) | M. tuberculosis H37Rv growth inhibition; higher % means a stronger effect | inhibition, % at 10 µM; hits with a dose series show IC50 in µM | 220,000 compounds, 0.95% hits;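 active = confirmed in a dose series; inconclusive = inhibition above 80% but not taken into the dose series; inactive = below 80% or under 30% at every dose of the series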;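 note: bacteria incubated seven days before Alamar blue readout; 0% = bacteria only wells and 100% = bacteria with antibiotic wells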
RecA intein inh – Mtb RecA intein splicing inhibitors, primary screen, biochemical, fluorescence, HTS; Protein RecA (Mycobacterium tuberculosis (strain ATCC 25618 / H37Rv)), P9WHJ3; cell-free RecA intein splicing; inhibition, %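 (about 9 µM by stock and volumes)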; 290,000 compounds, 0.75% hits; in the data active = inhibition above about 30%; inconclusive = no clear call, values can overlap the other calls;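 note: 0% = vehicle wells and 100% = reference inhibitor control wells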
Target sequence (P9WHJ3 whole entry, looked up): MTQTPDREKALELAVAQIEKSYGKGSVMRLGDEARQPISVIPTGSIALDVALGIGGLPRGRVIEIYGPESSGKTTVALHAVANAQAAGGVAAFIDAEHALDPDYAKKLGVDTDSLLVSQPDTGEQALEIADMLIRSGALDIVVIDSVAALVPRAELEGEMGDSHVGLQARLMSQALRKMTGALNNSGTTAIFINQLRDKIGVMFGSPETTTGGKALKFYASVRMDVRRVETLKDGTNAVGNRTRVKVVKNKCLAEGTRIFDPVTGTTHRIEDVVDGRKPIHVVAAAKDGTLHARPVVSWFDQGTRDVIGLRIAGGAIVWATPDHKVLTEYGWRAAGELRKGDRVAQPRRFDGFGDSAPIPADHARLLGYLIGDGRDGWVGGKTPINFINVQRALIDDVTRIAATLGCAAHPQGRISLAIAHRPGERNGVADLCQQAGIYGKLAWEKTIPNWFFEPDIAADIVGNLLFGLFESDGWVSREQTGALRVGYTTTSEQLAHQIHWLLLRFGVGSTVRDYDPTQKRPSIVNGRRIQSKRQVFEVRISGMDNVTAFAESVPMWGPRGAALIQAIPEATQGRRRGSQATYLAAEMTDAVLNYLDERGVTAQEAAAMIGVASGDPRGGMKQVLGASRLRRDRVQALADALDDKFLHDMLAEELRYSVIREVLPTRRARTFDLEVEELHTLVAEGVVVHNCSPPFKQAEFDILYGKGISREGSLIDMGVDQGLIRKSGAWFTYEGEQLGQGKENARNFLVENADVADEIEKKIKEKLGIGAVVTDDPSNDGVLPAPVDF
Arbovirus inh – antivirals against arbovirus infection, primary screen, cell-based, full library, 10K replicate subset | arbovirus infection cell-based antiviral screen | inhibition, % at 10 µM | 200,000 compounds, 0.37% hits | AID 1251, 2008;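 active = inhibition from about 30%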;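 note: bluetongue infection of BSR cells; cell survival read as ATP light after 72 h; 0% = infected wells without compound and 100% = uninfected wells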
Mtb betalactam – beta-lactam sensitization of Mtb H37Rv, H37Rv; AID 434955, 2010; 330,000 compounds, 0.27% hits; M. tuberculosis H37Rv growth with meropenem, percent inhibition; hits of this screen are not shown here; inhibition, % at 25 µM;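 active = about 74% or more and at least 40 points above the plate without the antibiotic, then above 30% in a dose series; inconclusive = first-round hits that could not be retested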;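 note: growth measured after seven days incubation then overnight dye step; 0% = bacteria only wells and 100% = bacteria with antibiotic; twin plates without the antibiotic show which effects depend on it; some results filed as inactive read as strong as hits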
YopH inh – YopH tyrosine phosphatase inhibitors, primary screen, biochemical, fluorescence Ex485/Em525 | YopH tyrosine phosphatase [Yersinia enterocolitica] | inhibition, %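 (about 10 µM by stock and volumes)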 | AID 898, 2007 | 140,000 compounds, 0.16% hits;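 active = inhibition of 50% or more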;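 note: controls were vehicle for no effect and minimum signal wells for full effect; inactives centre near -20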
Arbovirus inh repeat – further read-out of Arbovirus inh, marked with its call; inhibition, %; measured here: 10K subset replicate screen; many hits read low in the repeat;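 first of two repeat runs on a subset; 0% = infected and 100% = uninfected wells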
An asterisk follows results filed as active; ? = inconclusive; / = not tested or not shown. An excerpt, so the mix of outcomes need not match the whole.

SMILES	Mtb H37Rv	RecA intein inh	Arbovirus inh	Mtb betalactam	YopH inh	others
Cc1cccc(-n2cnc(C(=O)N/N=C/c3ccccc3)c2)n1	-8%	1.3	-4	8	-25
C/C(=N\NC(=O)c1cccc([N+](=O)[O-])c1)c1ccncc1	2%	/	-2	-1	/
CCOc1ccc(NC(=O)CC2C(=O)N(c3ccc(OC)cc3)C(=S)N2Cc2ccccn2)cc1 (centres undefined)	-7%	1.6	-7	9	/
CCN(CC(=O)Nc1c(F)cccc1F)C(=O)c1ccc2ncsc2c1	/	-2.3	/	3	/
CC(=O)c1c(C)[nH]c(C(=O)CSc2nnc3ccccn23)c1C	-11%	2.5	6	4	-13
CN1CCN(CCC(=O)Nc2ccc(OCc3ccccc3)cc2)CC1	1%	1.7	-26	-10	-35
CC(=O)NCCN=Cc1sc2ccccc2c1O	11%	-2.5	2	-1	-44	Arbovirus inh repeat=1
Cn1c(CCNS(=O)(=O)c2ccccc2)nc2cc([N+](=O)[O-])ccc21	/	-1.8	/	40	/
O=C1COc2ccc(S(=O)(=O)Nc3cccc(Cl)c3)cc2N1	/	-1.6	/	3	/
Cc1ccc(NC(=O)CS(=O)CC(=O)N(CC(=O)NC(C)(C)C)c2cccc(C)c2C)cc1 (centres undefined)	/	-2.6	/	1	/
Cc1ccc2nc(-c3ccc(SCC(=O)Nc4ccc5c(c4)OCCO5)nc3)[nH]c2c1	8%	-2.6	-4	0	-27
CC(=O)c1ccccc1OC(=O)c1ccco1	-3%	20	5	9	-57
Cc1nn(C(=O)c2ccc3c(c2)OCO3)c(N)c1-c1ccccc1	5%	1.2	-6	5	-29	Arbovirus inh repeat=-5
CCc1nnc(NC(=O)CN2CC(C)OC(C)C2)s1 (centres undefined)	/	1.3	/	2	/
CC(NC1CCCCC1)C(O)C12CC3CC(CC(C3)C1)C2 (centres undefined)	-1%	-0.3	3	5	-13

Random excerpt: two entries already listed.
SMILES	Mtb H37Rv	RecA intein inh	Arbovirus inh	Mtb betalactam	YopH inh	others
CCc1nnc(NC(=O)CN2CC(C)OC(C)C2)s1 (centres undefined)	/	1.3	/	2	/
CN1CCN(CCC(=O)Nc2ccc(OCc3ccccc3)cc2)CC1	1%	1.7	-26	-10	-35

Returning to the listing; the two compounds before the break are reprinted first.
SMILES	Mtb H37Rv	RecA intein inh	Arbovirus inh	Mtb betalactam	YopH inh	others
CCc1nnc(NC(=O)CN2CC(C)OC(C)C2)s1 (centres undefined)	/	1.3	/	2	/
CC(NC1CCCCC1)C(O)C12CC3CC(CC(C3)C1)C2 (centres undefined)	-1%	-0.3	3	5	-13
Cc1ccc(S(=O)(=O)C2(C(=O)NCc3ccccc3Cl)CC2)cc1	2%	1.6	/	-4	/
O=C(CCSCCC(=O)N1CCCC1)N1CCCC1	-7%	-3.1	10	11	11
COc1ccc(C(=O)Nc2ccc(NC(=O)c3cccs3)cc2)cc1Cl	-15%	-3.0	-11	-6	-44
CC(C)(CNC(=O)c1ccccc1F)CNC(=O)c1ccccc1F	/	-0.7	/	-7	/
Cc1ccc2c(c1)N(CC(=O)NC1CCCCCC1)C(=O)c1cccnc1O2	/	2.3	/	?	/
Cc1cccc(CC(=O)NCCN2CCCCC2)c1	/	-0.9	/	-6	/
Brc1ccc(-c2nnc(-c3ccc4c(c3)OCO4)o2)o1	-4%	2.4	-12	44	8
CCCCCC(=O)N[C@@H](c1ccccc1)[C@@H](O)C(=O)O[C@H]1C[C@@]2(O)[C@@H](OC(=O)c3ccccc3)C3[C@](C)(C(=O)[C@H](OC(C)=O)C(=C1C)C2(C)C)[C@@H](O)C[C@H]1OC[C@@]31OC(C)=O (some centres undefined)	/	7.9	/	49	/
O=C(CSc1ncccc1C(=O)O)Nc1ccc2c(c1)OCCO2	/	-1.3	/	-3	/
CCOC(=O)c1c(NC(=O)COC)sc(C(C)=O)c1C	-4%	0.6	-3	-2	-39
CCCCn1nc2cc(C(=O)N(CC)c3ccc(OC)cc3)ccc2c1OCC	0%	-1.8	-23	0	-35
O=S(=O)(/C=C/c1ccccc1)Nc1cccc(S(=O)(=O)NC2=NCCC2)c1	4%	-4.2	-1	-12	/
Cc1cc(OCC(=O)N2CCN(c3cccc(Cl)c3)CC2)c2c(C)c(C)c(=O)oc2c1	/	1.9	/	7	/
COc1ccc(-c2cc(=O)oc3cc(OCC(=O)N4CCOCC4)ccc23)cc1	/	2.8	/	8	/
CC(C)C(=O)Nc1cccc(C(=O)Nc2ccccc2C(=O)O)c1	-8%	-2.6	7	15	-28

The last 6 entries of the section above are carried over, then new ones follow:
SMILES	Mtb H37Rv	RecA intein inh	Arbovirus inh	Mtb betalactam	YopH inh	others
CCOC(=O)c1c(NC(=O)COC)sc(C(C)=O)c1C	-4%	0.6	-3	-2	-39
CCCCn1nc2cc(C(=O)N(CC)c3ccc(OC)cc3)ccc2c1OCC	0%	-1.8	-23	0	-35
O=S(=O)(/C=C/c1ccccc1)Nc1cccc(S(=O)(=O)NC2=NCCC2)c1	4%	-4.2	-1	-12	/
Cc1cc(OCC(=O)N2CCN(c3cccc(Cl)c3)CC2)c2c(C)c(C)c(=O)oc2c1	/	1.9	/	7	/
COc1ccc(-c2cc(=O)oc3cc(OCC(=O)N4CCOCC4)ccc23)cc1	/	2.8	/	8	/
CC(C)C(=O)Nc1cccc(C(=O)Nc2ccccc2C(=O)O)c1	-8%	-2.6	7	15	-28
CCOC(=O)c1sc2nc3n(c(=O)c2c1C)CCCCC3	/	3.3	-4	-3	-40	Arbovirus inh repeat=-5
O=c1[nH]c(=O)n(Cc2ccco2)c(O)c1/C=N/N1CCCCCC1	4%	0.3	3	-3	-10
O=C1c2ccccc2C(=O)N1Nc1ccc([N+](=O)[O-])cc1[N+](=O)[O-]	/	0.3	/	-1	/
Cc1ccc(NC(=S)N2CCOCC2)cc1	0%	7.1	3	1	-27
COc1ccc(N(C(=O)/C=C/C(=O)Nc2cc(C)on2)C(C(=O)NC2CCCC2)c2ccccc2C)cc1 (centres undefined)	13%	16	10	14	-23
O=C(COc1ccccc1)NNc1nc2c(F)cccc2s1	5%	/	0	1	/
CCc1ccccc1NC(=S)NNC(=O)c1ccccc1Cl	10%	1.1	1	-1	/
CCOc1ncccc1C(=O)NCC(c1ccccc1)N(C)C (centres undefined)	/	-0.9	/	5	/
CCC(=O)c1ccc(OCC(=O)Nc2ccc3nc(C)sc3c2)cc1	6.3µM*	5.3	/	92	/
Cc1ccc(NC(=O)c2ccc3c(=O)n4c(nc3c2)CCCCC4)nc1	/	-0.6	/	3	/
CCN(c1ccc(C)cc1C)S(=O)(=O)c1nnc(NC(=O)C(C)C)s1	/	-1.8	/	-1	/
CCCn1c(=O)n(CC(=O)NCC2CCCO2)c(=O)c2c3c(sc21)COC(C)(C)C3 (centres undefined)	/	1.8	/	-1	/
CCO[C@H]1OC(C(=O)N2CCOCC2)=C[C@@H](c2ccc(C(F)(F)F)cc2)[C@@H]1CCCO	-4%	-0.4	1	-6	/
COc1cccc(CNC(=O)C2CCN(S(=O)(=O)c3ccc4c(c3)CCC(=O)N4)CC2)c1	-8%	-0.7	3	2	-54
O=C(O)c1ccccc1-c1nnc2c(Cl)cc(C(F)(F)F)cn12	/	0.4	/	-2	/

Of the compounds above, 3 contain a furan ring, fused or not.
SMILES	Mtb H37Rv	RecA intein inh	Arbovirus inh	Mtb betalactam	YopH inh	others
CC(=O)c1ccccc1OC(=O)c1ccco1	-3%	20	5	9	-57
Brc1ccc(-c2nnc(-c3ccc4c(c3)OCO4)o2)o1	-4%	2.4	-12	44	8
O=c1[nH]c(=O)n(Cc2ccco2)c(O)c1/C=N/N1CCCCCC1	4%	0.3	3	-3	-10

(further entries)
SMILES	Mtb H37Rv	RecA intein inh	Arbovirus inh	Mtb betalactam	YopH inh	others
CCOC(=O)Cc1csc(NC(=O)CSC2=NCCS2)n1	/	4.2	/	-9	/
Cc1noc(C)c1COc1ccc(C(=O)OCC(=O)N2c3ccccc3NC(=O)C2(C)C)cc1	-5%	5.1	3	0	-7
O=S(=O)(c1ccc(NC2CCCc3ccccc32)nc1)N1CCOCC1 (centres undefined)	-5%	/	6	9	0
CCCN(CCC)CCNC(=O)c1cc2c(-c3ccc(Cl)cc3)nn(C)c2s1	/	1.3	/	92	/
O=C(NCCc1nc2ccccc2[nH]1)/C(=C/c1ccc(F)cc1)NC(=O)c1ccco1	-3%	-1.2	/	3	/
CCO[C@@H]1OC(C(N)=O)=C[C@H](C2CCCCC2)[C@H]1CCCO	-4%	0.5	/	-2	/
C=C1C2(C(=O)Nc3ccc(SC(F)F)cc3)CCC(C2)C1(C)C (centres undefined)	>100µM*	-0.2	-2	100	-1
O=S(=O)(NC1CCN(Cc2ccccc2)CC1)c1ccc(Cl)cc1	4%	1.4	/	-8	/
COc1ccc(C2OC(=O)Cc3cc(OC)c(OC)cc32)cc1 (centres undefined)	1%	1.1	-6	-2	/
CCC(C)c1ccc(OCCn2cc(/C=N/NC(=O)CSc3nnc(C)s3)c3ccccc32)cc1 (centres undefined)	-7%	0.2	-3	-2	-21
CCc1ccc(NC(=O)C(C)Nc2ccc(S(=O)(=O)NC(C)=O)cc2)cc1 (centres undefined)	7%	-1.5	0	69	4
O=S(=O)(Nc1ccccc1)c1ccc(F)cc1	-2%	2.2	-4	0	-35
CCOC(=O)C1=NN(c2cccc(Cl)c2)C2=NC(C)=C(C(=O)OC)C(c3cccs3)N12 (centres undefined)	-6%	2.5	13	6	4
Cc1cc(C)c2nc(N(CCCN(C)C)C(=O)C3=COCCO3)sc2c1	/	-0.2	/	-5	/
O=C(CSc1nc2c(sc3ccccc32)c(=O)n1Cc1ccccc1)NCC1CCCO1 (centres undefined)	-4%	-1.2	0	6	7
CCOC(=O)c1c(-c2cccs2)csc1NC(=O)C(C)(C)C	8%	13	-36	15	-4
CC(C)[C@H](N)C(=O)NC[C@H]1CC[C@H](C(=O)N[C@@H](Cc2ccccc2)C(=O)O)CC1	/	-0.6	/	-10	/
COC(=O)[C@@H]1Cc2c([nH]c3ccccc23)C(C)N1C(=O)c1ccccc1 (some centres undefined)	/	2.9	/	1	/
O=C(Nc1ccon1)c1ccc(Cl)c(S(=O)(=O)N2CCCCC2)c1	/	-12	/	9	/
Cc1ccc(S(=O)(=O)NNC(=O)c2cc3cc4ccccc4nc3s2)cc1	-9%	-5.3	-8	0	-43
Cc1ccc(-c2nc3sc4c(N)ncnc4c3c3c2CCCC3)cc1	-4%	-2.3	3	3	-27
O=c1oc2ccccc2c(N2CCOCC2)c1[N+](=O)[O-]	-9%	0.8	1	2	/
O=C(CCCOc1ccc(Cl)cc1Cl)NN1CCOCC1	-12%	-1.7	2	11	-30
COc1ccc(C(=O)CC(Nc2ccc([N+](=O)[O-])cc2)c2ccc(OC)cc2)cc1 (centres undefined)	5%	2.7	-1	50	-30
CCCN1CCC(=O)N([C@H](CSc2ccccc2)c2ccccc2)CC1	/	-2.7	/	-8	/
O=C(OCn1ncc(Br)c(Br)c1=O)c1ccc(F)cc1	?	73*	-38	100	-12
CCOc1cc(C(=O)OC(C)C(=O)Nc2ccc(NC(C)=O)cc2)ccc1OCC(=O)N1CCCCC1 (centres undefined)	/	-3.0	/	-14	/
